ugtP null kill – kills S. aureus RN4220 lacking UgtP; AID 1259309; growth inhibition, % (concentration not given with the values); 330,000 compounds, 0.54% hits; S. aureus RN4220 ugtP deletion, OD600 growth, 16 h; some inactives read as strong as hits;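 active = z-score under -3 and OD600 up to 0.15 on both plates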;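 also: plate controls were untreated wells for no effect and antibiotic for full effect; wells of about 80 µL received 100 nL stock; the first replicate is given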
PrP 5UTR inh – suppresses PrP 5' UTR mRNA reporter expression; 340,000 compounds, 0.35% hits; cell-based PrP 5' UTR mRNA reporter, plate reader; inhibition, % (test concentration not listed);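 active = every replicate at 50% or more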;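 also: 0 = median of the neutral control wells; tested in H4 reporter cells; numbers are from one replicate; inactives centre near -14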
Mtb hypoxia inh – inhibitors of hypoxia-regulated fluorescent reporter in Mycobacterium tuberculosis; 300,000 compounds, 0.1% hits; AID 1159583; M. tuberculosis hypoxia-regulated fluorescent reporter, fluorescence; fluorescence inhibition, % (no concentration beside the values);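 active = 35 to 45% if threefold the growth effect, above 45% if 1.5-fold the growth effect; inactive = the rest, general growth blockers included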;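 also: wells of about 50 µL received 100 nL stock; 0% = vehicle wells and 100% = reference inhibitor wells; whole bacteria with a GFP reporter of the hypoxia response; strong numbers were not always called active; many hits fall short of the cut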
BJeLR viability – BJeLR cell viability loss; AID 1554; BJeLR (HRASV12) viability, CellTiter-Glo ATP luminescence, 48 h; reference of the scale not given here; 300,000 compounds, 0.17% hits; inhibition, % (concentration not given with the values);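 active = replicate mean above 50%; inconclusive = above 50% but judged a plate artefact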;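 also: 50 nL library stock added to about 25 µL; numbers are from one replicate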
Autofluor counter – flagged as autofluorescent in microsphere protease counterscreen | fluorescence intensity (test concentration not listed) | 360,000 compounds, 3.1% hits | compound autofluorescence counterscreen, microsphere flow cytometry; stronger effect = higher value;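 active = at least 3 SD above the mean of all compounds, about 16000 in these data; inconclusive = too few beads counted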;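 also: 100 nL of 1 mM stock went into each well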
Sa RN4220 lethal – S. aureus RN4220 growth inhibition. OD600, 16 h. inhibition, % (no concentration beside the values). 330,000 compounds, 0.33% hits. AID 1259311;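 active = z-score of -3 or lower and OD600 up to 0.18 on both plates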;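 also: plate controls were untreated cells for no effect and reference antibiotic for full effect; stock transfer was 100 nL into about 80 µL; one replicate is shown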
Mtb hypoxia inh growth – recorded beside Mtb hypoxia inh, whose call it bears; growth inhibition, %; measured here: M. tuberculosis growth (absorbance);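 0% = vehicle and 100% = reference antibiotic; read after six days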
* = called active by the depositor; ? = inconclusive; . = not tested or not shown.

SMILES | ugtP null kill | PrP 5UTR inh | Mtb hypoxia inh | Mtb hypoxia inh growth | BJeLR viability | Autofluor counter | Sa RN4220 lethal
COc1ccccc1-c1cc(C(F)(F)F)nc(NCc2cccs2)n1 | 4 | 3 | 0 | 6 | 2 | 1995 | -2.3
Cc1cc(=O)[nH]c(SCC(=O)OCc2ccccc2)c1C#N | 18 | -21 | 11 | 1 | -1 | 4225 | 16
CCCCOc1ccc(/C=N/NC(=S)Nc2cccc(C)c2C)cc1 | . | -11 | . | . | 1 | 5003 | .
O=C(Nc1ccc(Cl)c(Cl)c1)c1csc(-c2ccccc2)n1 | -7 | -37 | 2 | 9 | -8 | 16273* | 0.2
O=C(COC(=O)/C=C/c1ccc(F)cc1)NCc1ccc2c(c1)OCO2 | -3 | -1 | -4 | 6 | . | 3992 | 5.6
CNS(=O)(=O)c1cccc(C(=O)OCC(=O)c2c(N)n(Cc3ccccc3)c(=O)n(C)c2=O)c1 | -4 | -15 | 4 | 7 | . | . | -1.8
CNc1nc(C)c(C(C)=O)cc1C#N | 2 | -46 | . | . | -2 | 2348 | 2.0
O=C(O)CNC(=O)c1ccc(NS(=O)(=O)c2ccc3ccccc3c2)cc1 | -4 | 1 | 9 | -4 | -1 | 3395 | 1.4
O=S(=O)(NCC(Nc1ccc(Cl)cc1)c1ccccc1)c1ccc(Cl)cc1 (stereo not given) | -8 | -5 | -3 | 4 | -3 | 1904 | 0.4
C=CCN1C(=O)/C(=C\c2cccs2)C(C(=O)OC)=C1C | -2 | -33 | 6 | 4 | 8 | 9367 | 5.9
CC(=O)c1ccc(NC(=O)C2CCC(C)(C(=O)O)C2(C)C)cc1 (stereo not given) | -6 | -18 | -3 | 5 | -7 | 7595 | 6.6
O=C(CCN1CCN(Cc2ccccc2)CC1)NNC(=O)Nc1cccc([N+](=O)[O-])c1 | -5 | -3 | -6 | -8 | -1 | 5789 | -1.6
Cc1ccc(C)c(C(=O)COC(=O)C2CCN(c3ccc(C(F)(F)F)cn3)CC2)c1 | . | -19 | . | . | 8 | 5813 | .
CCn1c(=O)cc(OCC(=O)N2CCc3ccccc32)c2ccccc21 | 1 | -17 | . | . | . | 6098 | 0.8
COc1ccc(S(=O)(=O)N(Cc2ccccc2)Cc2nc3ccccc3c(=O)[nH]2)cc1 | -5 | -34 | . | . | 2 | 4506 | 1.3
CCc1nn2c(=O)cc(CSCC(=O)Nc3ccccc3F)nc2s1 | -3 | -5 | 2 | 2 | 4 | 5404 | 2.6
CC(=O)Nc1ccc(C)c(NS(=O)(=O)c2cccc(C(F)(F)F)c2)c1 | 3 | -37 | -1 | 0 | 3 | 5747 | 6.2
CCCCn1c(O)c(N=NC(=O)c2ccco2)c2ccccc21 | -6 | -12 | 17 | 5 | 1 | 2569 | 27
COc1cccc(NP(=O)(Oc2ccccc2Cl)Oc2ccccc2Cl)c1 | -37 | 9 | -11 | -4 | -1 | 1966 | -12
COc1ccc(N(C(C)=O)C2C=CS(=O)(=O)C2)c(OC)c1 (stereo not given) | 1 | -65 | 15 | 0 | 1 | 12479 | 3.1
Cc1ccc(-n2ccc(-c3nn(-c4ccccc4)ccc3=O)n2)cc1 | -1 | -16 | 0 | 3 | 0 | 4485 | 1.4
CCOc1ccc(OCCSc2nnnn2-c2ccccc2)cc1 | 14 | -10 | . | . | 9 | 2939 | 3.1
CCCCCCn1cnc2c(c1=O)c1nc3ccccc3nc1n2N=Cc1ccco1 | -11 | . | -13 | -12 | . | . | 22
COc1ccc(Cc2nnc(SCC(=O)N3CCCC(C)C3)o2)cc1 (stereo not given) | -2 | 4 | -5 | 3 | -3 | 4371 | 2.3
CC(=O)Nc1ccc(S(=O)(=O)Oc2ccc(/C=N/N=C3/NC(=O)C(CC(=O)O)S3)cc2)cc1 (stereo not given) | . | -14 | . | . | -3 | 3484 | .
SMILES | ugtP null kill | PrP 5UTR inh | Mtb hypoxia inh | Mtb hypoxia inh growth | BJeLR viability | Autofluor counter | Sa RN4220 lethal
COC(=O)C(Cc1c[nH]c2ccccc12)N1CCS(=O)(=O)CC1 (stereo not given) | 10 | -22 | 12 | 15 | 3 | 4606 | -1.7
CCc1nc(N2CCC3(CC2)OCCO3)c2nnn(Cc3ccccc3)c2n1 | -1 | -9 | -3 | 9 | 4 | 3481 | -1.2
CCOC(=O)C(CC)Sc1nnc2cc(C)c3ccccc3n12 (stereo not given) | -9 | -4 | 4 | 4 | -9 | 3289 | -3.8
O=C1NC2(CCCC2)C(=O)N1CC(=O)N(Cc1ccccc1)c1ccccc1 | 6 | -21 | 9 | 0 | -6 | ? | 1.9
O=C(c1cc(COc2c(F)cccc2F)on1)N1CCSCC1 | 7 | -47 | 3 | 8 | 3 | 4648 | 1.9
Cc1ccc(Cc2nnc(SCC(=O)Nc3ccccc3)[nH]c2=O)cc1 | -3 | -23 | 2 | 0 | 2 | 4438 | 3.1
Cc1ccc(/C=N/N2CCCCC2)o1 | . | -8 | . | . | -1 | 3680 | .
Cc1ccc(/C=C/C(=O)OCC(=O)NC(=O)NCc2ccccc2)cc1 | 7 | -20 | 8 | 6 | . | . | 9.0
Clc1ccccc1-c1nnc2n1-c1ccccc1SC2 | 5 | -19 | 14 | 1 | 1 | 6536 | 3.2
CCOC(=O)C1CCCN(C2=NC(=O)/C(=C/c3ccc(O)c(OC)c3)S2)C1 (stereo not given) | 2 | 12 | 3 | 3 | -3 | 3586 | 2.5
COc1cc(C=NNC(=O)c2cccc(NC(=O)c3ccccc3Cl)c2)ccc1O | 4 | . | 11 | 9 | . | . | 3.0
COP(=O)(OC)C(Nc1ccccc1)c1ccccc1 (stereo not given) | -3 | -8 | -7 | 8 | 1 | 3439 | -5.2
COc1cc(C=NNC(=S)NC2CC3CC2C2C=CCC32)ccc1O (stereo not given) | -22 | . | 9 | 2 | . | . | 4.0
Clc1ccc(Cc2noc(-c3cccs3)n2)cc1 | 19 | -81 | 21 | 14 | -4 | 11400 | 3.3
CC(=O)Nc1nonc1NC(=O)c1ccc(F)cc1 | 12 | -16 | 7 | 5 | 1 | 8916 | 3.8
Cn1c(NC(=O)c2cc(Cl)ccc2Cl)cc(=O)n(C)c1=O | 8 | -2 | 8 | 14 | -7 | 5928 | 5.2
CCOC(=O)c1ccc(NC(=O)c2c(C)[nH]c(C(=O)OCC)c2C)cc1 | -1 | -26 | 7 | 8 | -9 | 10159 | 2.0
CC1(C)CC(NC(=O)C2CCN(S(=O)(=O)c3cccc(C(F)(F)F)c3)CC2)CC(C)(C)N1 | 3 | -7 | 5 | 1 | . | 4296 | 2.7
CCCS(=O)c1nc(C)cc(C)c1S(C)(=O)=O (stereo not given) | 0 | -12 | -11 | -10 | -2 | 3591 | 3.5
COCCN1Cc2cccc(C(=O)Nc3ccc(S(=O)(=O)N4CCCCC4)cc3)c2C1=O | 2 | 2 | 4 | 8 | 0 | 5286 | 2.2
CN(C)C(=O)C1C2NC(=S)N(c3ccccc3)C1(C)Oc1ccccc12 (stereo not given) | 3 | -3 | 1 | 12 | 4 | 3949 | 8.8
O=C(CCCCCN1C(=O)C2C3C=CC(C3)C2C1=O)Nc1nccs1 (stereo not given) | 3 | -15 | . | . | 0 | 6023 | -0.6
CCN1CCCC1Cn1cnc2c([nH]c3ccc(Cl)cc32)c1=O (stereo not given) | 2 | -22 | . | . | -12 | 5717 | 0.0
Cc1onc(-c2ccccc2)c1C(=O)N(CC(C)C)c1c(N)n(CC(C)C)c(=O)[nH]c1=O | -5 | -26 | 0 | 1 | . | 3911 | -2.7
O=C(NCCCO)c1cc2ccccc2[nH]1 | -2 | -31 | -1 | 0 | 7 | 4423 | 3.6
SMILES | ugtP null kill | PrP 5UTR inh | Mtb hypoxia inh | Mtb hypoxia inh growth | BJeLR viability | Autofluor counter | Sa RN4220 lethal
CN(C)c1ccc(/C=C/c2nnnn2-c2ccccc2)cc1 | 1 | -54 | 7 | -4 | 7 | 7786 | 8.0
COc1ccc(N2CCN(C(=O)CCCC3=NS(=O)(=O)c4ccccc4N3)CC2)cc1 | -4 | -10 | -6 | 5 | -28 | 9788 | 0.8
O=C(COC(=O)C1CC1)Nc1ccc(Cl)cn1 | 11 | -6 | 12 | 3 | . | 6266 | 5.1
CCc1cc2c(SCC(=O)N3CC(=O)Nc4ccccc43)ncnc2s1 | 4 | -10 | 7 | -6 | -11 | 2629 | -0.1
CC(=O)N(c1ccc2oc(=O)sc2c1)S(=O)(=O)c1cccc2cccnc12 | 9 | -19 | 8 | 2 | 6 | 3763 | -3.3
O=C(COc1ccc(Br)cc1)Nc1ccccc1C(=O)N1CCOCC1 | -2 | -21 | -7 | -20 | 1 | 5779 | -2.0
CCC(Sc1nc(C)cc(C)n1)C(=O)O (stereo not given) | 5 | 8 | 9 | 18 | 0 | 13087 | 2.4
O=C(O)C1CCCN(S(=O)(=O)Cc2ccccc2)C1 (stereo not given) | -4 | -24 | -7 | 2 | 11 | 3611 | -2.7
OC(CN1C2=NCCCN2c2ccccc21)c1ccc(Cl)cc1 (stereo not given) | 3 | -4 | . | . | 8 | 5196 | 2.4
C#CCN1C(=O)S/C(=C\c2ccc(-c3ccc(Cl)c(C(=O)O)c3)o2)C1=O | -1 | -3 | 2 | 13 | -7 | 3533 | 6.4
O=C1COc2ccc(S(=O)(=O)N3CCC(C(=O)NCc4ccc(F)cc4)CC3)cc2N1 | 5 | 5 | 1 | -1 | 1 | 2439 | 2.1
O=C(c1ccccc1)C1CCN(C(=O)C2CCC(=O)N(Cc3cccc(F)c3)C2)CC1 (stereo not given) | -3 | 4 | -10 | 9 | -9 | 5923 | -5.0
CC(C)OC(=O)c1sc2nc3c(cc2c1N)C(=O)CCC3 | 7 | -57 | . | . | 7 | 3899 | 4.7
Cc1ccc(-c2nc3ccccc3c(=O)n2-c2ccc(O)cc2)cc1 | -2 | -11 | 13 | 46 | -1 | 4989 | -1.7
Cc1ccc(NC(=O)N2CCN(S(=O)(=O)c3ccccc3)CC2)cc1 | -2 | -10 | 6 | 13 | -4 | 4659 | 1.0
CCOC(=O)C1=CN(Cc2ccc(OC)cc2)C=C(C(=O)OCC)C1c1cccs1 | 29 | -35 | 4 | 6 | 12 | 2199 | -1.1
C/C(=N/NC(=O)c1ccoc1C)C12CC3CC(CC(C3)C1)C2 | . | -11 | . | . | -10 | 2965 | .
CCN1CCN(c2cc(C)c3cc(NC(=S)N4CCCC(C)C4)ccc3n2)CC1 (stereo not given) | 9 | -2 | 22 | 16 | 11 | 6123 | 2.4
O=C(CCc1ccc(S(=O)(=O)NCCc2ccccc2)cc1)NCc1ccc2c(c1)OCO2 | -8 | 3 | 10 | 2 | 3 | 24716* | -0.2
Cc1nc(C)c(-c2csc(NCCc3ccccc3)n2)s1 | 7 | -23 | 2 | 16 | 8 | 4713 | -4.2
Cc1cccc(C(C)C)c1NC(=O)c1c(-c2ccccc2)noc1C | -2 | -10 | 5 | 0 | 2 | 6008 | 3.7
O=C1CC(N2CCN(Cc3ccc(Cl)cc3)CC2)C(=O)N1CCc1ccccc1 (stereo not given) | . | -18 | . | . | -7 | 3947 | .
COc1ccc(C(=O)NN=C2SCC(=O)N2Cc2ccc3c(c2)OCO3)c(OC)c1 | -4 | . | 6 | -1 | . | . | 4.5
CC(NC(=O)COC(=O)CCC(=O)c1ccc(F)cc1)c1ccccc1 (stereo not given) | 6 | -4 | -1 | -2 | . | 3221 | 2.4
O=C(CN1CCCCC1)NN(Cc1ccccc1)c1ccccc1 | 0 | 15 | 8 | -2 | 6 | 4737 | 3.2
Cc1nnc(SCC(=O)NC(=O)NC(C)C)s1 | 8 | -35 | 0 | -6 | -1 | 4743 | 9.0

A different layout for some results above:
compound	ugtP null kill	PrP 5UTR inh	Mtb hypoxia inh	Mtb hypoxia inh growth	BJeLR viability	Autofluor counter	Sa RN4220 lethal
O=C(COC(=O)C1CC1)Nc1ccc(Cl)cn1	11	-6	12	3	.	6266	5.1
CCc1cc2c(SCC(=O)N3CC(=O)Nc4ccccc43)ncnc2s1	4	-10	7	-6	-11	2629	-0.1
CC(=O)N(c1ccc2oc(=O)sc2c1)S(=O)(=O)c1cccc2cccnc12	9	-19	8	2	6	3763	-3.3
O=C(COc1ccc(Br)cc1)Nc1ccccc1C(=O)N1CCOCC1	-2	-21	-7	-20	1	5779	-2.0
CCC(Sc1nc(C)cc(C)n1)C(=O)O (stereo not given)	5	8	9	18	0	13087	2.4

Screening results as filed in PubChem.
